# StopGo RLuc – FMDV 2A StopGo reporter, Renilla signal. HEK cells with a luciferase reporter of 2A StopGo recoding. Potency, µM (titrated, usually from 57.5 µM), inactives show at the top dose signal change, negative = less light. AID 1745857. 120,000 compounds, 0.32% hits; active means well fitted falling curve with a large enough effect; inconclusive means small, poorly fitted or top-dose-only effect; inactive means no such curve, though single readings can be large or run the other way; also: nearly all actives have a fitted effect of over 55% in size; overnight with compound
# 2A firefly – lowers the firefly signal of an FMDV 2A StopGo reporter. HEK cells with a luciferase reporter of 2A StopGo recoding. AID 1745856. Potency, µM (doses to about 57.5 µM), for the others: at the top dose signal change, negative = less light. 120,000 compounds, 0.23% hits; active = well fitted falling curve with a large enough effect; inconclusive = small, poorly fitted or top-dose-only effect; inactive = no such curve, though single readings can be large or run the other way; also: nearly all actives have a fitted effect of over 60% in size; overnight with compound
# * hit, by the source's call; ? = inconclusive; & = joins results of further samples; [ ] = remark or other dose. % is scaled to controls: 0 for no effect and ±100 for the full control effect; potency is read from the fitted curve at half-maximal effect. Only part of the results is shown, so the mix of outcomes need not match the whole.
# Under each structure: StopGo RLuc	2A firefly
O=S(=O)(C(Sc1ccc(Cl)cc1)=C(Sc1ccc(Cl)cc1)Sc1ccc(Cl)cc1)c1ccccc1
    14%	18%
O=C(CSc1nc(-c2ccco2)nc2cc(=O)[nH]n12)Nc1ccccc1F
    -21%	-20%
Cc1ccc(C(C=O)C=O)cc1
    65%[activator]	96%
O=C(O)c1ccc(NS(=O)(=O)c2ccc(Cl)c(C(=O)Nc3ccccc3)c2)cc1
    7%	-11%
CCOC(=O)Cn1c(=O)n(-c2cccc(Cl)c2)c2nc(-c3ccccc3Cl)nc(C(N)=O)c21
    -5%	10%
O=C(CSc1nnc(-c2cccnc2)n1-c1ccccc1)c1c[nH]c(C(=O)N2CCCC2)c1
    53%[activator]	10%
Cc1ccccc1-n1c(C)nnc1SCc1nc2ccccc2o1
    5%	7%
Cc1ccc(NC(=O)CSc2nc(-c3ccco3)cc(C(F)(F)F)n2)c(C)c1
    -7%	-8%
Cc1oc(-c2ccccc2)nc1CC(=O)Nc1cc(Cl)ccc1F
    20%	7%
O=C(Cc1ccccc1)Nc1cccc(-c2nc3cccnc3s2)c1
    50%[activator]	110%[activator]
Cn1c(=O)c2c(nc(NCCCn3ccnc3)n2Cc2ccc(F)cc2)n(C)c1=O
    -1%	2%
CCOc1ccc(-c2nnc(SCC(=O)NCCC(C)C)nc2-c2ccc(OCC)c(OC)c2)cc1OC
    3%	7%
CCOC(=O)c1c(C)[nH]c(CCC(=O)Nc2ccccc2OCC)c1C
    1%	-14%
O=C(O)CCCc1ccccn1
    -8%	0%
CC1c2ccsc2CCN1C(=O)c1n[nH]c(=O)c2ccccc12 (configuration not stated)
    -8%	-7%
Cc1ccc2nc(CSc3nnc(NC(=O)c4cccc(Br)c4)s3)cc(=O)n2c1
    -3%	-17%
O=c1c2c3c(sc2nnn1Cc1ccc(Br)cc1)CCCC3
    -10%	-16%
CCOc1ccccc1C(=O)Nc1cccc(-c2nc3ccccc3s2)c1
    -1%	58%[activator]
Cc1ccc(Cl)cc1NC(=O)CCS(=O)(=O)c1ccc(Br)s1
    6%	21%
CN(Cc1ccc(Cl)cc1)C(=O)C1CCN(c2ccc(C(F)(F)F)cn2)CC1
    10%	-2%
COc1ccc(S(=O)(=O)N(CC(=O)N2CCN(C)CC2)c2ccccc2OC)cc1
    1%	-8%
COc1cccc2cc(C(=O)Nc3ccc(NC(C)=O)cc3)c(=O)oc12
    -5%	64%[activator]
CCCCc1nn2c(=O)cc(CN(CC)c3ccccc3)nc2s1
    -11%	9%
Cc1ccc(NC(=O)NCC2CCN(Cc3cccc(Cl)c3)CC2)cc1Cl
    -16%	-19%
Cn1c(=O)c2c(nc(NCc3ccco3)n2Cc2ccccc2Br)n(C)c1=O
    2%	11%
COCCN1Cc2cccc(C(=O)Nc3ccc(C)c(F)c3)c2C1=O
    10%	-6%
COCCNC(=O)CCCn1c(SCC(=O)c2ccc(Br)cc2)nc2c(sc3ccccc32)c1=O
    -8%	-12%
Cc1ccc2cc3cc(C(=O)N4CCN(c5cccc(C(F)(F)F)c5)CC4)sc3nc2c1
    -9%	-2%
Cc1ccc2[nH]c(CSc3nnc(NC(=O)COc4ccccc4C)s3)cc(=O)c2c1
    18%	34%
Cc1cc2oc(C(=O)NCC(c3ccco3)N3CCCCC3)cc(=O)c2cc1Cl (configuration not stated)
    -11%	-20%
COC(=O)c1nnn(CC(=O)Nc2cc(F)ccc2F)c1C(=O)OC
    -6%	-5%
O=C(Nc1ccc(F)c(Cl)c1)c1cccc2ccccc12
    19%	147%[activator]
Cc1nn(CCCC(=O)NCc2ccccc2)c(=O)c2nn(-c3ccccc3)c(C)c12
    7%	4%
COc1cc(C(=O)NCC(c2ccc3c(c2)OCO3)N2CCN(C)CC2)cc(OC)c1OC (configuration not stated)
    -4%	-22%
O=C(NCc1ccc(F)cc1)C1(c2cccs2)CCOCC1
    -2%	-7%
CCCCCOc1ccc(/C=C/C(=O)/C=C/c2ccc(OCCCCC)cc2)cc1
    12%	29%
COCCN1CN=C(Nc2nc(C)c3cccc(OC)c3n2)NC1
    25%	35%[activator]
O=C(NCC1CCN(C2CCCC2)C1)Nc1ccccc1Cl (configuration not stated)
    -1%	7%
CCn1nc(C(=O)NC(c2ccc3c(c2)OCCO3)C(C)C)c2ccccc2c1=O (configuration not stated)
    6%	10%
CCCOc1ccc(Oc2ncccc2CNC(=O)Nc2ccccc2)cc1
    12%	27%
Cc1ccc(C)c(N2CCN(c3nc4ccccc4n4nnnc34)CC2)c1
    7%	61%[activator]
Cc1sc2ncnc(N3CCOCC3)c2c1-c1ccc(F)cc1
    -7%	-9%
CCOC(=O)c1cccc(NC(=O)[C@H](CSCc2ccccc2)N2Cc3ccccc3C2=O)c1
    260%[activator]	0%
Cc1ccc2c(=O)cc(C(=O)Nc3ccc(S(=O)(=O)N(C)c4ccccc4)cc3)oc2c1C
    -4%	-10%
Cc1ccc(CN(C)C(=O)Cc2cccc3cccnc23)c(C)c1
    171%[activator]	0%
CCCN(Cc1cccs1)C(=O)Nc1cc(Cl)ccc1C
    3%	6%
CCOc1cc(C(=O)OCC(=O)NC(=O)NC(C)(C)C)cc(OCC)c1OCC
    5%	23%
COc1cccc(NC(C)c2nc3scc(-c4cccs4)c3c(=O)[nH]2)c1 (configuration not stated)
    -4%	-7%
COCCN(CCOC)C(=O)c1cc(Cl)ccc1F
    -19%	-7%
COc1ccc(OC)c(Nc2ncnc3c2cnn3-c2cccc(Cl)c2)c1
    0%	31%[activator]
COc1cccc(CNCCNC(=O)c2nonc2N)c1
    -12%	-4%
O=C(O)C1CCN(C(=O)Cn2ccc3c(Cl)cccc32)CC1
    -7%	-1%
Cc1cccc(NS(=O)(=O)c2c(C)nn(C)c2C)c1C
    20%	-9%
CCOCCCNCc1ccc(C(=O)O)cc1
    5%	-2%
COc1ccc(C(=O)NCCc2c[nH]c3ccccc23)c(F)c1
    16%	242%[activator]
CCn1c(=O)c2ccccc2n(CC(=O)Nc2ccccc2C(F)(F)F)c1=O
    1%	-4%
C/C(=N/Nc1ccc(F)cc1F)c1cc(Cl)ccc1Cl
    3%	11%
O=C(O)Cc1cccc(-c2cc(CCCCCCc3ccc(O[C@H]4O[C@H](CO)[C@@H](O)[C@H](O)[C@@H]4O)c(-c4cccc(CC(=O)O)c4)c3)ccc2O[C@H]2O[C@H](CO)[C@@H](O)[C@H](O)[C@@H]2O)c1
    -11%[0.46 µM]	14%[0.112 µM]
CC1(C)CC(NCc2ccccc2)=CC(=C(C#N)C#N)C1
    35%[activator]	-8%
Cc1cccc(CSc2ncc(Cl)c(C(=O)Nc3sc4c(c3C(N)=O)CCCC4)n2)c1
    -1%	-4%

# Next compounds follow:
# Under each structure: StopGo RLuc	2A firefly
COc1ccc(/C=N/OCc2ccc(C)cc2)cc1OCc1ccccc1
    7%	-4%
CC(C)C(=O)Nc1ccccc1C(C)C
    8%	-10%
COc1ccc(C)cc1NC(=O)Cn1c(=O)nc(-c2ccccc2F)c2cc(Cl)ccc21
    -13%	-13%
CCOc1ccccc1CNC(=O)c1cc(-c2ccc(Cl)s2)nc2ccccc12
    -1%	-2%
COc1cc(OC)cc(C(NC(=O)c2cc(C(C)=O)c[nH]2)c2nccn2C)c1 (configuration not stated)
    10%	4%
COc1ccc2c(C)c(CC(=O)Nc3ccccc3F)c(=O)oc2c1C
    -1%	19%
O=C(CSc1nnc2c(=O)n(-c3ccccc3)ccn12)N1CCN(c2ccccc2F)CC1
    -17%	-21%
CCN1CCN(Cc2nc3c(c(=O)n(C)c(=O)n3C)n2Cc2ccc(F)cc2)CC1
    -9%	-8%
O=C(CCS(=O)(=O)c1ccc2c(c1)OCCO2)Nc1ccc(SC(F)F)cc1
    -8%	11%
COC(=O)c1ccc(Oc2c(C)oc3cc(OCc4ccc(F)cc4)ccc3c2=O)cc1
    -4%	4%
O=C1CCc2cc(S(=O)(=O)NCc3ccc(Cl)cc3)cc3c2N1CC3
    45%[activator]	-7%
COc1ccc(CCNC(=O)CCS(=O)(=O)c2cc3c(cc2Cl)NC(=O)CO3)cc1OC
    -11%&-9%	-2%&-5%
C=CCNc1oc(COc2ccc(Br)cc2)nc1C#N
    7%	84%[activator]
O=C(Nc1ccc(O)c(-c2nc3ccccc3o2)c1)c1ccc([N+](=O)[O-])o1
    -21%	-16%
COc1ccc(C(=O)OCCCC(=O)c2ccc(F)cc2)c(OC)c1
    26%	23%
CS(=O)C1CCCCC1(O)CSc1nc(-c2cccs2)cc(-c2ccccc2)c1C#N (configuration not stated)
    0%	14%
CCc1ccccc1Nc1nn2c(=O)c3ccc(C(=O)NC4CCCCC4)cc3nc2s1
    -8%	-5%
O=[N+]([O-])c1ccc(-c2csc(Nc3cccc4ccccc34)n2)cc1
    -18%	38%[activator]
CC(=O)NS(=O)(=O)c1ccc(NC(=O)C(C)Oc2cccc(Cl)c2)cc1 (configuration not stated)
    4%	2%
COc1cccc(NC(=O)C(Sc2nnc(-c3ccco3)n2C)c2ccccc2)c1 (configuration not stated)
    7%	8%
COc1ccccc1NC(=O)c1ccc(NC(=O)c2nn(C)c(=O)c3ccccc23)cc1
    59%[activator]	25%
Cc1cc(C(=O)N2CCN(S(=O)(=O)c3ccccc3)CC2)c(C)n1C(C)C
    -7%	6%
CCN(CC)S(=O)(=O)c1cc(NC(=O)CN2c3cccc4cccc(c34)S2(=O)=O)ccc1C
    ?	?
CC(=O)N1CCc2c(sc3nc(SCC(N)=O)n(-c4ccc(F)c(Cl)c4)c(=O)c23)C1
    29%	30%
COc1ccc(C2CC(c3ccsc3)=NN2C(=O)CCC(=O)O)cc1OC (configuration not stated)
    18%	0%
CCOC(=O)COc1ccc(F)cc1C(=O)c1ccn2nc(-c3ccc(OC)cc3)cc2n1
    -13%	-11%
COc1ccccc1N1C(=O)CN(S(=O)(=O)c2ccccc2)CC1(C)C(=O)NCCC(C)C (configuration not stated)
    4%	-2%
COc1ccc(CNC(=O)Cn2c(=O)c3cccn3c3cccnc32)cc1
    -17%	-7%
c1ccc(-n2ncc3c(Nc4cccc5c4CCCC5)ncnc32)cc1
    0%	51%[activator]
COc1ccccc1N1CC(c2nc3ccc(C)cc3[nH]2)CC1=O (configuration not stated)
    -3%	3%
Cc1ccc(C)c(NC(=O)c2cnn(-c3cccc(F)c3)c2C2CCN(C(=O)OC(C)(C)C)CC2)c1
    4%	-20%
COc1ccc(S(=O)(=O)c2cn(CC(=O)Nc3cccc(Cl)c3)c3ccc(C)cc3c2=O)cc1
    27%	-7%
O=C1NCCCCC1Nc1ccc2oc(C3CC3)nc2c1 (configuration not stated)
    8%	136%[activator]
O=C(O)CC1C(=O)NCCN1CCc1ccccc1 (configuration not stated)
    1%	3%
CC(C)(C)C1CCc2c(sc(NC(=O)Cn3nnc(-c4cccc(C(F)(F)F)c4)n3)c2C#N)C1 (configuration not stated)
    -9%	-20%
O=S(=O)(NCc1ccc(Cn2cccn2)cc1)c1ccc(C(F)(F)F)cc1
    -3%	-1%
O=S(Cc1cccc(C(F)(F)F)c1)Cc1ccc(Cl)cc1Cl (configuration not stated)
    ?	?
Nc1nccnc1C(=O)NCc1cn(-c2ccccc2)nc1-c1ccccc1
    24%	153%[activator]
COc1cccc2cc(-c3nc(-c4nonc4N)no3)c(=O)oc12
    -4%	91%[activator]
COc1ccc(C(=O)C2CCN(C(=O)/C=C/c3cccc(C(F)(F)F)c3)CC2)cc1
    -28%	?
COc1cn(CC(=O)Nc2ccc(C(F)(F)F)cc2)c(CN2CCOCC2)cc1=O
    -2%	-8%
COc1ccccc1N1CCN(C(=O)C2CCN(S(=O)(=O)c3cn(C)cn3)CC2)CC1
    -4%	-7%
COc1ccc(-c2nc3cc(NC(=O)COc4ccccc4)ccc3o2)cc1Cl
    -8%	102%[activator]
O=C(Oc1ccc(Cl)cc1)c1cc2ccccc2oc1=O
    -4%	9%
COc1ccc(OC)c(CN2CCN(Cc3ccc(C(F)(F)F)cc3)CC2)c1
    -5%	1%
COC(=O)CCc1sc(Nc2ccccc2)nc1-c1ccc(OC)cc1
    6%	0%
COc1ccc(C(NC(=O)c2oc3ccc(F)cc3c2C)c2nccn2C)cc1 (configuration not stated)
    -9%	-13%
CC(C)(C)CC(C)(C)NC(=O)CCNC(=O)c1ccccc1
    14%	12%
NS(=O)(=O)c1ccc(NC(=O)CCC(=O)O)cc1
    -4%	-17%[11.5 µM]
CCCOc1c(Br)cc(/C=C(/C#N)C(=O)OCC)cc1OC
    11%	11%
Cc1ccc(CNC(=O)Cn2ncc3c(C)n(Cc4ccc(Cl)cc4)c(C)c3c2=O)cc1
    -14%	-15%
O=C(Nc1ccc(Br)cc1)N1CCC(CN2CCCC2)CC1
    -14%	-7%
CCC(=O)Nc1sc(C)c(CC)c1C(=O)O
    27%	36%[activator]
COc1ccc(-c2cc(C)no2)cc1S(=O)(=O)NC1CCC(C)CC1 (configuration not stated)
    269%[activator]	2%

# Five entries drawn at random from the list so far:
# Under each structure: StopGo RLuc	2A firefly
Cc1ccc(CNC(=O)Cn2ncc3c(C)n(Cc4ccc(Cl)cc4)c(C)c3c2=O)cc1
    -14%	-15%
O=C(Nc1ccc(Br)cc1)N1CCC(CN2CCCC2)CC1
    -14%	-7%
NS(=O)(=O)c1ccc(NC(=O)CCC(=O)O)cc1
    -4%	-17%[11.5 µM]
O=C(Oc1ccc(Cl)cc1)c1cc2ccccc2oc1=O
    -4%	9%
COc1cn(CC(=O)Nc2ccc(C(F)(F)F)cc2)c(CN2CCOCC2)cc1=O
    -2%	-8%
